HIV Env fusion – inhibitors of HIV Env-mediated cell fusion | HeLa-JRFL Env/CEM21 cell fusion, luciferase | inhibition, % at 12.3 µM | hit rate 1.1% among 360,000;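 active = mean replicate inhibition score of at least 50 and every replicate individually at or above 50; inconclusive = only one of the two criteria met; inactive = mean below 50 and not all replicates reaching 50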;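 also: 0% = plate neutral controls and 100% = maraviroc near 300 nM; one replicate is shown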
PABP FP inh – PABP-poly(A) binding inhibition; PABP-poly(A) RNA binding, fluorescence polarization; inhibition, % at 35 µM; hit rate 1% among 290,000;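 active = 50% or more with normal probe brightness, or confirmed in later tests; inconclusive = above 50% with abnormal brightness, or retests that disagree; inactive = below 50% or failed in later tests; about a fifth of its hits are not listed in these tables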;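 also: calls also rest on retests at 20 µM and on dose response follow-up; controls were probe without protein and protein plus probe with vehicle; some compounds called inactive have numbers as strong as hits; many hits fall short of the cut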
UUG fidelity – modulators of start codon recognition fidelity in yeast. S. cerevisiae UUG-firefly luciferase reporter, luminescence/redox ratio. activity score, % at 18.7 µM. hit rate 0.13% among 350,000;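 active = replicate mean at a twofold rise or more, about +100% in these data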;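 also: firefly luciferase made from a UUG start codon reports start codon fidelity; reporter light over untreated wells divided by growth signal over untreated wells; some hits fall short of that in this replicate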
CSC inhib – cancer stem cell inhibition; cancer stem cell-like cells viability, luminescence; inhibition, % at 7.5 µM; hit rate 1.1% among 300,000; AID 2717;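 active = mean at 75% or more and at least half the replicates too; inconclusive = mean and replicates disagree; tested in HMLE shEcad cells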;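 also: 0% = median of negative and 100% = median of positive control wells; the first replicate is given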
MT1-MMP act inh – blocks activation of human MT1-MMP; HT1080 RFP-PRO-GFP cells, GFP/RFP ratio fluorescence, overnight; percent of plate control window, DMSO zero; hit rate 0.061% among 360,000; GFP/RFP ratio change, % at 20 µM; P50281; AID 651647;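 active = GFP/RFP ratio change of at least 30% with cell ATP level not reduced by more than half and red fluorescence within 50% of control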; also: strong numbers were not always called active
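Assay system: RFP-PRO-GFP reporter HT1080 cells; read-out basis: GFP/RFP fluorescence ratio; benchmarks: DMSO wells and RFP-L50D-GFP cells; doses: 20 µM single dose, 1% DMSO; schedule: overnight cell settling, then overnight compound exposure, 37 °C, 5% CO2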
Rce1 inh – yeast Ras-converting enzyme inhibition; hit rate 0.27% among 290,000; calls only; yeast membranes, quenched prenylated peptide cleavage fluorescence;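 active = fall in fluorescence gain of 50% or more versus controls, with final raw signal at or below 3038400; inconclusive = same 50% fall but final raw signal above 3038400; inactive = fall in fluorescence gain under 50%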;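 also: plate controls were neutral control wells for no effect and wells lacking membranes for full effect; tested at 10 µM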
Target sequence (Q03530 whole entry, looked up): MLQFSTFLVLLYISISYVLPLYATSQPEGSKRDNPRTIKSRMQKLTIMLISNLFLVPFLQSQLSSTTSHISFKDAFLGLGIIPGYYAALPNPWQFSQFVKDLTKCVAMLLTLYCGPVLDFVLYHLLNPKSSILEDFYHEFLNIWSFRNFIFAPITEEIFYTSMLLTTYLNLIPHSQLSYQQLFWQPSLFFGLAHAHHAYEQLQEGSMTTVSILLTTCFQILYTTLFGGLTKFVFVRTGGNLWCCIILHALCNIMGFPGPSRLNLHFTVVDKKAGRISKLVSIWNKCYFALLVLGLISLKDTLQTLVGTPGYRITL
eIF4H inh – inhibitors of RNA binding by human eIF4H | inhibition, % at 35 µM | AID 2012 | Q15056 | eIF4H fluorescence polarization binding assay | hit rate 0.94% among 290,000;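 active = 50% or more with normal probe brightness, or confirmed in later tests; inconclusive = above 50% with abnormal brightness, or retests that disagree; inactive = below 50% or failed in later tests; about a fifth of its hits are not listed in these tables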;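 also: calls also rest on retests at 20 µM and on dose response follow-up; 0% = protein and probe with vehicle and 100% = probe without protein; strong numbers were not always called active; many hits fall short of the cut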
MT1-MMP act inh RFP – second read-out of MT1-MMP act inh, no call of its own (marks repeat the call); RFP signal change, %; measured here: RFP expression control read;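 0 = vehicle wells; hits needed this value within 50% of zero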
* hit, by the source's call; i = inactive; ? = inconclusive; . = not tested or not shown; + = active, no number. An excerpt; rates above refer to the full screens.

SMILES | HIV Env fusion | PABP FP inh | UUG fidelity | CSC inhib | MT1-MMP act inh | MT1-MMP act inh RFP | Rce1 inh | eIF4H inh
Cc1ccc2c(c1Br)/C(=N/N1C(=O)c3ccccc3C1=O)C(=O)N2 | . | 5 | . | -16 | -4 | 2 | i | 9
CCOC(=O)c1c(NC(=O)CSc2ncn[nH]2)sc(C)c1C | -77 | 2 | -15 | -14 | -2 | -1 | i | 1
CCOc1ccc(S(=O)(=O)N2CCN(C(=O)C3CSC4(C)CCC(=O)N34)CC2)cc1 (stereo not drawn) | 3 | . | 1 | . | -2 | -2 | . | .
CCCN(CCC)S(=O)(=O)c1ccc(C(=O)N2CC3CCC(CC3)C2)cc1 | -4 | 2 | -10 | 59 | -4 | -9 | i | -2
CCOc1ccc(Cl)cc1-c1cc(C(=O)NCc2cccs2)[nH]n1 | -17 | . | -16 | . | -4 | -8 | . | .
CSc1nc2sc3c(c2c(=O)[nH]1)CC(C)(C)OC3 | -72 | 13 | -5 | -7 | 2 | 2 | i | 7
Cc1ccc(-c2oc3ccccc3c(=O)c2O)cc1 | -23 | 2 | -18 | 28 | -1 | -3 | i | -2
N#Cc1nc(-c2ccc(OCc3ccc(Cl)cc3)cc2)oc1NCCCn1ccnc1 | . | 26 | -22 | 31 | 4 | -3 | i | 11
O=C1C=CN(Cc2ccccc2)CC1 | 2 | 2 | -10 | -7 | 0 | 3 | i | -6
CCc1ncc(CN2CCC(C(=O)Nc3ccc(-n4nc(C)cc4C)cc3)CC2)cn1 | 14 | 1 | -21 | -6 | 1 | -1 | i | -4
OCCNc1nc(Nc2cccc(O)c2)nc2ccccc12 | 11 | -20 | . | -6 | 4 | -6 | i | -11
CC1=C(C(=O)N2CCOCC2)C(c2ccccc2F)C2=C(CC(C)(C)CC2=O)N1 (stereo not drawn) | ? | -8 | -12 | -6 | -2 | 0 | + | -3
CC(Oc1ccc2ccccc2c1)C(=O)NNC(=O)Nc1ccccc1F (stereo not drawn) | -14 | -8 | -5 | -7 | 1 | 1 | i | 0
CCC(C)(C)C1CCC2(CC1)NC(=S)N(c1ccccc1)N2 (stereo not drawn) | -7 | 1 | . | 47 | 0 | 2 | i | -11
CC1(C)C2CCC1(CS(=O)(=O)N1CCN(c3ccc(F)cc3)CC1)C(=O)C2 (stereo not drawn) | -11 | 6 | 1 | -22 | 3 | -2 | i | -10
COc1ccc(CC(=O)N2CCN(c3ccccn3)CC2)cc1OC | . | 2 | -17 | -4 | 3 | 1 | . | -6
COc1ccc2oc(=O)c(C(=O)N3CCN(c4ccc(F)cc4)CC3)cc2c1 | . | 27 | -2 | 6 | 6 | 0 | i | 1
Cc1ccc(NC(=O)CCNCc2ccco2)cc1S(=O)(=O)N(C)C | 13 | -4 | . | -3 | 3 | 4 | i | 1
Cc1nc2c(C(=O)NCc3ccc4c(c3)OCO4)c[nH]n2c(=O)c1Cc1ccccc1F | . | -5 | . | . | -7 | -2 | i | 12
O=C(NCc1ccccc1Cl)C1CCCN1S(=O)(=O)c1ccc(F)cc1 (stereo not drawn) | 9 | 6 | 3 | -11 | -1 | -2 | i | -10
Cc1ccc(OCC(=O)NCC(=O)Nc2ccc(F)cc2)c([N+](=O)[O-])n1 | 17 | 27 | -9 | 12 | 2 | 4 | i | -1
COCCNC(=O)C(C)OC(=O)c1cc2sccc2n1C (stereo not drawn) | -30 | 0 | -15 | -4 | -2 | -4 | i | 5
NS(=O)(=O)c1ccc(NC(=O)CSc2ncccn2)cc1 | -16 | 1 | -10 | 8 | 1 | 3 | i | -4
CC[C@@H]1[C@H]2CCCC(=O)N3CC[C@@H](C[C@@H]1OC(=O)Nc1ccccc1)[C@@H]23 | . | -6 | 2 | -5 | 2 | -1 | i | -2
Cc1cccc(NC(=O)CSc2nnc(C3CC3)n2CC2CCCO2)c1C (stereo not drawn) | -10 | -5 | -8 | -3 | 2 | 6 | i | -15
CN(C)c1ccc(S(=O)(=O)N2CCCCC2)cc1NC(=O)C1=NN(c2ccccc2)C(=O)CC1 | 1 | 12 | -15 | 1 | 6 | -3 | i | 0
CNC(=S)N/N=C(\C)c1ccc(Cl)c(Cl)c1 | -29 | 14 | . | -6 | 4 | 1 | i | -12
O=C(c1cccc(Cl)c1)N1CCC(N2CCC(C(=O)N3CCOCC3)CC2)CC1 | 6 | 4 | . | 1 | 0 | 4 | . | -3
Cc1nc(SCC(=O)NNC(=O)c2cccs2)[nH]c(=O)c1C | -1 | 5 | . | -4 | 3 | 4 | i | 13
O=C(O)CCC(=O)Nc1ccc(C(=O)OCC(=O)c2ccc(Cl)cc2)cc1 | -4 | 1 | 4 | -15 | -5 | -1 | i | -6
O=[N+]([O-])c1ccc(C2OCCO2)cc1CS(=O)(=O)c1ccccc1 | 17 | 6 | 4 | -4 | 4 | 0 | i | 1
O=C(Nc1ccccc1)C1CCN(c2nccs2)CC1 | -25 | 8 | -18 | -15 | -3 | 1 | i | -2
Cc1ccc(SC(C)C(=O)NC(N)=O)c(C)c1 (stereo not drawn) | 20 | -10 | . | . | -2 | -2 | i | -6
C=CCNC(=S)Nc1ccc2nsnc2c1 | -16 | -6 | . | -7 | -3 | 1 | i | 4
Cc1cc(OCC(=O)NCCc2c[nH]c3ccccc23)c2c(C)cc(=O)oc2c1 | . | 4 | 4 | -4 | 5 | -8 | . | -16
COc1ccc(CN2CCC(C(=O)N(C)CCc3ccc(OC)c(OC)c3)CC2)c(OC)c1 | . | 1 | -3 | -7 | 5 | 1 | i | 7
CCCCCCCCCCn1cc(C(C)=O)c(=O)[nH]c1=O | -22 | -1 | -27 | 0 | -2 | -7 | i | 6
CNc1c([N+](=O)[O-])cnn1-c1ccccc1Cl | -109 | 1 | -11 | -18 | 3 | 2 | i | -1
CC(=O)c1c(C)[nH]c(C(=O)COC(=O)C2CC2)c1C | 14 | 8 | -12 | -16 | -3 | 0 | i | 10
CC(=O)Nc1ccc(-c2ccnc3c2CC(C)(C(=O)NCc2ccc(N(C)C)cc2)O3)cc1 (stereo not drawn) | 3 | . | -26 | . | -1 | 0 | . | .
O=C(Nc1ccncc1)c1ccc(Cl)c(S(=O)(=O)N2CCCC2)c1 | -4 | . | -13 | -11 | -3 | -28 | i | .
CCN(CC)CCOC(=O)c1cc(Cl)c(N)cc1OC | -4 | . | -11 | 2 | 2 | 3 | . | .
O=C(CSc1nnc(-c2ccc(F)cc2)o1)Nc1ccc(S(=O)(=O)N2CCCCCC2)cc1 | . | -2 | -12 | 8 | 5 | 0 | . | -5
CCc1ccc(NS(=O)(=O)c2c(C(=O)N3CCOCC3)c(C)n(C)c2C)cc1 | 1 | 1 | -9 | -16 | 0 | 5 | i | 10
CCOC(=O)c1nn(-c2ccccc2)cc1O | -19 | -5 | -9 | 5 | 3 | 3 | i | -6
N#CC1=C(SCC(N)=O)NC(=O)CC1c1cccc2ccccc12 (stereo not drawn) | -7 | . | -9 | . | 0 | 1 | . | .
Cc1cc(C)c(NC(=O)c2cccc(NC(=O)c3ccco3)c2)c(C)c1 | 19 | 7 | 5 | -17 | -8 | -8 | i | -5
CC(C)(C)c1ccc(-c2n[nH]c(=S)n2/N=C/c2ccncc2)cc1 | -2 | -3 | . | -4 | -5 | -3 | i | -12
CS(=O)(=O)NNC(=O)c1cc2cc3ccccc3nc2s1 | -49 | 6 | . | -9 | 6 | 4 | i | -1
CC(=O)N1c2ccc(S(=O)(=O)N(C)CC(=O)N(C)Cc3ccccc3)cc2CC1C (stereo not drawn) | 9 | 5 | -14 | -13 | -1 | -8 | i | 3
Cc1cc(=O)oc2cc(NC(=O)CN3C(=O)NC(C)(c4ccccc4)C3=O)ccc12 (stereo not drawn) | -4 | . | -17 | 2 | 0 | 1 | i | .
CCN(Cc1ccccc1)C(c1ccc(C)cc1)c1nnnn1C(C)(C)CC (stereo not drawn) | . | 4 | -4 | 31 | -16 | -17 | i | -3
O=C(Cn1cc(C(F)(F)F)cc(Cl)c1=O)NC1CCS(=O)(=O)C1 (stereo not drawn) | -2 | . | -26 | . | 0 | 1 | . | .
COc1ccc(-c2cc(-c3nnc(COC(=O)CC4CCCC4)o3)c3ccccc3n2)cc1OC | -1 | -9 | . | -5 | 7 | -1 | . | -1
Cc1ccc(S(=O)(=O)NCC(=O)NCC2COc3ccccc3O2)cc1C (stereo not drawn) | 17 | . | -13 | . | 3 | 5 | . | .
CCOC(=O)c1c(-c2ccc(C)o2)csc1NC(=O)COC(=O)c1ccc(NC(N)=O)cc1 | -59 | 18 | -13 | 1 | -9 | 2 | i | 6
Cn1c(=O)c2ccccc2n2c(CCl)nnc12 | 16 | 8 | 7 | -5 | 1 | 4 | i | 2
Cc1cc(SCC(=O)N(CC(C)C)c2c(N)n(CC(C)C)c(=O)[nH]c2=O)nc2ccccc12 | 2 | . | -8 | . | 8 | -3 | . | .
CCC(=O)Nc1ccc(C(=O)OCc2ccccc2)cc1 | -8 | -1 | -4 | 11 | 5 | 5 | i | 2
CC(CCC(=O)O)C1CC[C@@]2(C)C3C(=O)CC4C(C)(C)C(O)CC[C@]4(C)C3C(=O)C[C@]12C (stereo partly drawn) | 0 | 7 | -8 | -4 | 1 | 3 | i | -1

Grouped by structure, the compounds so far with a cyano group (two)
SMILES | HIV Env fusion | PABP FP inh | UUG fidelity | CSC inhib | MT1-MMP act inh | MT1-MMP act inh RFP | Rce1 inh | eIF4H inh
N#Cc1nc(-c2ccc(OCc3ccc(Cl)cc3)cc2)oc1NCCCn1ccnc1 | . | 26 | -22 | 31 | 4 | -3 | i | 11
N#CC1=C(SCC(N)=O)NC(=O)CC1c1cccc2ccccc12 (stereo not drawn) | -7 | . | -9 | . | 0 | 1 | . | .

New compounds follow.
SMILES | HIV Env fusion | PABP FP inh | UUG fidelity | CSC inhib | MT1-MMP act inh | MT1-MMP act inh RFP | Rce1 inh | eIF4H inh
COc1cccc(C(=O)/C=C/c2ccc(N3CCCCC3)c([N+](=O)[O-])c2)c1 | 7 | -8 | -15 | 86* | -2 | -10 | i | -5
Cc1cc(C(=O)OCC(=O)Nc2cccc(S(N)(=O)=O)c2)c(C)o1 | . | . | -15 | -15 | 0 | 3 | . | .
Cc1cc(NS(=O)(=O)c2ccc(NC(=O)CSc3nc4ncccc4[nH]3)cc2)nc(C)n1 | -17 | 10 | -8 | 11 | -3 | 6 | i | -3
c1ccc(CNc2ncnc3nc[nH]c23)nc1 | 5 | 4 | -2 | 5 | 4 | 8 | i | 4
Cn1cc(/C=C2\SC(=O)N(c3ccc(O)cc3)C2=O)c2ccccc21 | -96 | 5 | -12 | 42 | 1 | -5 | i | -1
CNc1c(NS(=O)(=O)c2ccc(F)c(Cl)c2)c(=O)oc2ccccc12 | -3 | -1 | 8 | -1 | 2 | -3 | i | -9
O=C(c1cc(-c2ccccc2Cl)nc2ccccc12)N1CCC1 | 20 | . | . | -8 | 10 | -1 | i | .
C=CCn1c(C)cc(C(=O)COC(=O)CCc2cc(OC)c(OC)c(OC)c2)c1C | 4 | . | 6 | 0 | 0 | 2 | . | .
CS(=O)(=O)N1CCN(C(=O)c2cccnc2)CC1 | . | 9 | -32 | -6 | 3 | 2 | i | -2
O=C(O)CCCCCNC(=O)/C=C/c1ccco1 | -12 | 7 | 2 | -19 | -3 | 2 | i | 45
CCOC(=O)c1ccccc1NC(=O)COC(=O)CSCC(=O)Nc1cc(C)on1 | 0 | . | -12 | 12 | 0 | 1 | i | .
c1ccc2c3c([nH]c2c1)C1(CCCCC1)NCC3 | . | 7 | -11 | -2 | 3 | 2 | i | 2

Compound activity from PubChem.
